Screens as filed in PubChem.
FGF22 binding: FGF22 (human) thermal shift binding; 1.5% of 340,000 active; recombinant FGF22 thermal shift, SYPRO orange fluorescence; percent of sucrose octasulfate shift, DMSO zero; calls only at 9.99 µM; AID 651658;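 active means melting point raised past a set limit in the mean and every replicate; inconclusive means no clear call; three in four hits are not shown here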
Target sequence (Q9HCT0 whole entry, looked up): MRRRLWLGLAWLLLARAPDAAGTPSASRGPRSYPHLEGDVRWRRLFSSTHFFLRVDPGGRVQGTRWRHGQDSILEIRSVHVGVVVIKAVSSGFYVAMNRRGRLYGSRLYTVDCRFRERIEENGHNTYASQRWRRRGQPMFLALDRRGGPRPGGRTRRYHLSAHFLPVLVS
E coli growth: inhibitors of Escherichia coli growth; OD600, 23 h; active compounds read low; OD600 absorbance (concentration not given with the values); 0.21% of 330,000 active; AID 1053175;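 active means OD600 absorbance below the run mean of sample wells minus 3.6 SD, in any replicate, cut at about 0.56 in these data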;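 further: stock transfer was 300 nL into about 60 µL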
Vif TR-FRET: inhibitors of Vif binding to APOBEC3G peptide, primary screen, biochemical, TR-FRET, GST-Vif 1-94, biotin-A3G peptide, dose response retest (AID 1117319) | TR-FRET GST-Vif / biotin-A3G peptide binding; higher % means a stronger effect; test concentration not given here; strong numbers were not always called active | inhibition, %; hits with a dose series show IC50 in µM | 0.57% of 260,000 active;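 active means above the screen mean plus three standard deviations and confirmed in dose response; inconclusive means results disagree or hit not tested in dose response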;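 further: Vif residues 1-94 fused to GST binding biotinylated APOBEC3G peptide 110-148; 0% = full assay without inhibitor and 100% = GST in place of GST-Vif; retest series ran down from 100 µM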
AF4-AF9 inh: MLL-AF4/AF9 protein interaction inhibition. inhibition, % at 10 µM. AlphaScreen, biotin-AF4 peptide binding to FLAG-AF9. P42568. 0.47% of 350,000 active;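 active means every replicate reaching a set inhibition limit, whatever the replicate mean, cut at about 25% in these data; inconclusive means mean inhibition reaches that limit but some replicates miss it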;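 further: 0% = plate neutral control median and 100% = total signal loss; the record names both 10 and 1 µM as test concentration; the first replicate is given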
Target sequence (P42568 whole entry, looked up): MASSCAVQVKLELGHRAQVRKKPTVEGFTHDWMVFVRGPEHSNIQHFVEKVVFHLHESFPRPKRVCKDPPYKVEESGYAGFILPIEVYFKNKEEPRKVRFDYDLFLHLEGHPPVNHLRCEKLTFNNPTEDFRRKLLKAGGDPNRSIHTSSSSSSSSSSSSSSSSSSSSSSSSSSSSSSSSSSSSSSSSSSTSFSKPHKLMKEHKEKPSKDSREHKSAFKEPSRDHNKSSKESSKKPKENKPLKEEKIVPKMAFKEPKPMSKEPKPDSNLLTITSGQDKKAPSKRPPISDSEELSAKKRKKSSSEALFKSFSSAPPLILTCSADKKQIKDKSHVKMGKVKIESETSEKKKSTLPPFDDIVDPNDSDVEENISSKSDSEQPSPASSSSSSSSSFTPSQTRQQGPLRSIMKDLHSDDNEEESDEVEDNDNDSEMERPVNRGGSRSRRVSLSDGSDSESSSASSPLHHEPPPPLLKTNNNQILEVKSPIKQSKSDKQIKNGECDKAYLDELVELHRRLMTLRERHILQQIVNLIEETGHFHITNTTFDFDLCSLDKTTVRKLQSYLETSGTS
Ecoli rRNA inh: inhibitors of bacterial rRNA selective over humanized ribosomes | 1.6% of 350,000 active | GFP signal change (wild-type ribosome), % (no concentration beside the values) | AID 720706 | E. coli WT GFP vs humanized-ribosome RFP mutants, fluorescence, 24 h; active compounds read low; DMSO median 0, no signal -100;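 active means significant combined selectivity score with lowered wild-type GFP, culture density cut under 30%, mutant RFP and density less affected; inactive means any of these conditions unmet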; further: one replicate is shown; some compounds called inactive have numbers as strong as hits
HNF4A DNA FP: change in binding of human HNF4 alpha to DNA | P41235 | HNF4a-FITC DNA binding, fluorescence polarization, 1 h | activity change, % at 10 µM | 0.3% of 360,000 active; in the data active means activity change above about 30%, passing the limit was not always enough;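 further: controls were the assay level and a saturating level of protein; the project sought stronger binding though the title names inhibitors; some compounds called inactive have numbers as strong as hits; positive values seem to mean higher polarization but the record does not say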
ALR H2O2 inh: blocks human ALR sulfhydryl oxidase activity | 3.8% of 290,000 active | purified ALR, DTT oxidation, H2O2 HRP-luminol luminescence | inhibition, % (concentration not given with the values) | P55789 | AID 485317;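 active means mean and each replicate at 75% or more; inconclusive means only one of the two met; inactive means neither met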;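 further: stock transfer was 7.5 nL into about 7.5 µL; 0% = neutral wells and 100% = wells with inactivated enzyme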
Target sequence (P55789 whole entry, looked up): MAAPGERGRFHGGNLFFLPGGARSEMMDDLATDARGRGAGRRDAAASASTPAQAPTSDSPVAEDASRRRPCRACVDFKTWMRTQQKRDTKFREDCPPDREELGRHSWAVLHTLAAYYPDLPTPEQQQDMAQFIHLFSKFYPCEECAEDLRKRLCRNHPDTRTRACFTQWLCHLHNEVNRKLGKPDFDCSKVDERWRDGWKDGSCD
Ecoli rRNA inh OD600: also measured in Ecoli rRNA inh; calls as there; OD600 change, %; measured here: OD600 growth;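 optical density of the mix in the first replicate; 0 = DMSO median and -100 = no signal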
Ecoli rRNA inh RFP: further read-out of Ecoli rRNA inh, marked with its call; RFP signal change, %; measured here: RFP humanized mutant strains;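 first replicate; 0 = DMSO median and -100 = no signal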
Starred values were filed as active, the others as inactive; i = inactive; ? = inconclusive; . = no result given; & = joins results of further samples.

SMILES	FGF22 binding	E coli growth	Vif TR-FRET	AF4-AF9 inh	Ecoli rRNA inh	Ecoli rRNA inh OD600	Ecoli rRNA inh RFP	HNF4A DNA FP	ALR H2O2 inh
COc1ccc(S(=O)(=O)NC2(C(F)(F)F)NC(=O)N(CCc3ccccc3)C2=O)cc1 (stereo not drawn)	i	0.71	.	0.5	-1	2	2.1	-3.3	-2
CC(NC(=O)c1ccc2c(c1)OCCO2)c1ccc(S(N)(=O)=O)cc1 (stereo not drawn)	i	0.72	19%	-3.4	16	12	0.5	-2.3	-6
Cc1cc2c(cc1S(=O)(=O)N1CCc3ccccc31)NC(=O)CO2	.	0.73	.	-1.7	-32	-45	-5.6	-2.0	29
CC(=O)Nc1cccc(-c2ccnc3c2CC(C(=O)Nc2ccc(Cl)cc2)O3)c1 (stereo not drawn)	i	.	.	-3.0	-42	-61	-11	10	.
COc1ccc(-n2nc(C(=O)NCc3ccco3)c3c4ccccc4n(C)c3c2=O)cc1Cl	.	0.77	-7%	.	.	.	.	0.2	.
CCCC#Cc1ccc2c(c1)O[C@@H](CN(C)C(=O)CN(C)C)[C@H](C)CN([C@@H](C)CO)S2(=O)=O	i	.	.	2.7	6	14	1.4	.	.
CCOc1cc2[nH]c(=S)n(CCCCC(=O)NCc3ccco3)c(=O)c2cc1OCC	.	0.7	-10%	.	.	.	.	-3.1	-4
c1cncc(COC2CCCN(Cc3nc(-c4cccs4)no3)C2)c1 (stereo not drawn)	i	0.71	.	0.2	20	2	2.1	-3.6	-2
Cc1nccn1CCC(=O)NC1CC(C)(C)Cc2c1cnn2-c1ccccc1 (stereo not drawn)	i	.	-3%	-1.1	1	8	-5.7	1.4	.
COc1cccc(C(C)(O)c2nc(-c3ccccc3C)cs2)c1 (stereo not drawn)	i	.	.	-5.7	-52	-77	-17	3.5	.
CCn1c(SCC(=O)NCc2ccco2)nnc1-c1ccc(N)cc1	.	0.7	?	.	.	.	.	-1.3	-1
O=C(Nc1ccc(-c2nc3ncccc3o2)cc1)c1ccc(Br)o1	.	0.64	-4%&-8%	.	.	.	.	1.5	-6
COc1ccc2cc(-c3[nH]ncc3CN3CCCCO3)ccc2c1	i	0.62	5%	5.1	-21	-25	1.0	3.0	-46
COc1ccc(C2=Nn3c(nnc3C3CCCCC3)SC2)cc1OC	.	0.71	6%	.	.	.	.	-0.8	-3
CCc1ccccc1NC(=O)C1CC(c2ccc(OC)cc2)=NO1 (stereo not drawn)	i	0.69	5%	-0.7	-13	-18	-18	-3.1	4
O=C(Nc1cccc(-c2ccc(N3CCOCC3)nn2)c1)c1ccc(F)cc1F	i	0.68	6%	-6.7	0	10	-1.6	-0.3	13
CCN(Cc1ccccc1)C(=O)c1[nH]c2ccc(OC)cc2c1C	i	0.65	-6%	3.2	5	-30	-3.5	0.7	.
c1ccc(-c2cccc(-c3ccccn3)n2)nc1	i	0.54	15%	1.0	-49	-71	-29	-6.4	-2
O=C(c1ccc(F)cc1)N1CCC(N2CCOCC2)CC1	.	0.73	-5%	.	.	.	.	-0.2	-32
COc1cc(NC(N)=S)c(OC)cc1Cl	i	0.69	-4%	.	21	11	0.5	0.6	-12
Cc1cc(CN2CCC(n3nccc3NC(=O)c3ccccc3C)CC2)n[nH]1	i	0.71	1%	0.1	8	11	-0.1	-0.1	2
O=C(NC1CCCC1)c1nc2c(nnn2Cc2ccccc2Cl)c(=O)[nH]1	.	0.68	7%	.	-40	-59	-16	-0.6	4
Cc1ccc2oc(=O)c3cc(C(=O)NCCCN4CCc5ccccc5C4)sc3c2c1	i	0.69	-4%	-4.1	-3	-15	2.3	2.3	-8
CCN(CC)S(=O)(=O)c1ccc(NC(=O)COC(=O)CN2C(=O)c3ccccc3C2=O)cc1	.	0.68	5%	.	.	.	.	2.2	2
CCCNC(=O)N(C)C[C@H]1Oc2ncc(-c3ccc(F)cc3)cc2C(=O)N([C@@H](C)CO)C[C@@H]1C	i	.	.	-2.7	2	3	-1.7	.	.
COc1cccc(-c2ccc3c(c2)O[C@H](CN(C)C(=O)C2CCCCC2)[C@@H](C)CN([C@@H](C)CO)S3(=O)=O)c1	i	.	.	8.7	-4	-17	7.4	.	.
CCC(C(=O)Nc1ccc(C(=O)N2CCCC2)cc1)c1ccccc1 (stereo not drawn)	i	0.69	-12%	0.0	5	-2	-9.7	-1.0	-19
O=C(O)CSCC(=O)Nc1ccc(Cl)cc1C(F)(F)F	i	0.7	3%	0.2	0	6	-1.2	2.8	-8
COc1ccc(S(=O)(=O)N(CC(C)C)CC(C)C)c2cccnc12	i	0.76	-3%	5.0	-16	-45	-3.3	-2.4	.
Cc1cccnc1Nc1nc(-c2ccc(O)c(O)c2)cs1	i	0.63	>51µM*	8.0	-25	-5	-8.7	0.3	99*

3 compounds already listed, sorted by the number in Ecoli rRNA inh OD600, high to low.
SMILES	FGF22 binding	E coli growth	Vif TR-FRET	AF4-AF9 inh	Ecoli rRNA inh	Ecoli rRNA inh OD600	Ecoli rRNA inh RFP	HNF4A DNA FP	ALR H2O2 inh
Cc1nccn1CCC(=O)NC1CC(C)(C)Cc2c1cnn2-c1ccccc1 (stereo not drawn)	i	.	-3%	-1.1	1	8	-5.7	1.4	.
c1cncc(COC2CCCN(Cc3nc(-c4cccs4)no3)C2)c1 (stereo not drawn)	i	0.71	.	0.2	20	2	2.1	-3.6	-2
CCN(Cc1ccccc1)C(=O)c1[nH]c2ccc(OC)cc2c1C	i	0.65	-6%	3.2	5	-30	-3.5	0.7	.

Retrieved by compound from the entries so far, five records:
SMILES	FGF22 binding	E coli growth	Vif TR-FRET	AF4-AF9 inh	Ecoli rRNA inh	Ecoli rRNA inh OD600	Ecoli rRNA inh RFP	HNF4A DNA FP	ALR H2O2 inh
c1ccc(-c2cccc(-c3ccccn3)n2)nc1	i	0.54	15%	1.0	-49	-71	-29	-6.4	-2
Cc1ccc2oc(=O)c3cc(C(=O)NCCCN4CCc5ccccc5C4)sc3c2c1	i	0.69	-4%	-4.1	-3	-15	2.3	2.3	-8
O=C(Nc1cccc(-c2ccc(N3CCOCC3)nn2)c1)c1ccc(F)cc1F	i	0.68	6%	-6.7	0	10	-1.6	-0.3	13
Cc1cccnc1Nc1nc(-c2ccc(O)c(O)c2)cs1	i	0.63	>51µM*	8.0	-25	-5	-8.7	0.3	99*
O=C(NC1CCCC1)c1nc2c(nnn2Cc2ccccc2Cl)c(=O)[nH]1	.	0.68	7%	.	-40	-59	-16	-0.6	4

Carrying on:
SMILES	FGF22 binding	E coli growth	Vif TR-FRET	AF4-AF9 inh	Ecoli rRNA inh	Ecoli rRNA inh OD600	Ecoli rRNA inh RFP	HNF4A DNA FP	ALR H2O2 inh
O=C(Nc1ccc2c(c1)OCO2)C1CC(=O)N(c2ccc3c(c2)OCCO3)C1 (stereo not drawn)	i	0.64	6%	-1.1	14	13	5.0	-0.1	-6
CCCC#Cc1cnc2c(c1)C(=O)N([C@@H](C)CO)C[C@@H](C)[C@@H](CN(C)C(=O)Nc1cccc(F)c1)O2	i	.	.	-6.9	-5	6	2.9	.	.
Clc1ccc(C(c2nnnn2C2CCCC2)N2CCSCC2)cc1 (stereo not drawn)	i	0.71	?	6.2	-29	-24	-7.2	-2.1	-4
Cc1ccc(NC(=O)c2cc(-c3ccccc3)n[nH]2)cc1	i	0.69	.	1.2	1	3	0.5	2.1	-1
CCN(CC(=O)NCc1cccs1)C(=O)c1cccc(Cl)c1	i	0.61	.	0.8	7	11	-0.5	-3.8	-8
COc1ccc(C)cc1S(=O)(=O)N(CC(=O)Nc1cc([N+](=O)[O-])ccc1C)c1ccc(C)c(C)c1	i	0.78	.	5.6	22	2	7.5	2.5	-6
O=C(CCCn1c(SCC(=O)c2ccc(O)c(O)c2)nc2ccccc2c1=O)NCC1CCCO1 (stereo not drawn)	.	0.72	32%	.	.	.	.	-8.6	99*
O=C(Nc1ccccc1C(=O)O)c1ccc(NC(=O)C2CCCO2)cc1 (stereo not drawn)	i	0.66	3%	-3.1	-1	1	2.3	-4.1	1
CCOc1ccc(CN2CCN(Cc3cnn(CC)c3C)CC2CCO)cc1 (stereo not drawn)	i	0.71	8%	0.1	8	8	-2.9	-0.3	-2
O=S(=O)(c1ccc2c(c1)OCCO2)N1CCN(c2ncnc3sccc23)CC1	.	0.73	.	0.1	-24	-27	-5.4	2.9	6
Cc1ccc2oc(-c3ccc(NC(=O)c4cccnc4)cc3)nc2c1	.	0.76	-3%	.	.	.	.	0.9	4
Cc1cccc2c1CC(C)(C)N=C2C1=C(O)CC(C)(C)CC1=O	.	0.74	-5%	.	.	.	.	-1.7	26
Cc1cc(=O)n2[nH]c(-c3ccsc3-n3c(C)ccc3C)cc2n1	i	0.69	.	7.2	-6	11	6.1	-9.7	-3
O=C1Nc2ccccc2Oc2cc([N+](=O)[O-])cc(Oc3ccccc3)c21	.	0.69	27%	.	.	.	.	17	6
CCC(C)NC(=O)C1c2cc(OC)c(OC)cc2C(=O)N(C)C1c1cccs1 (stereo not drawn)	.	0.74	29%	.	.	.	.	13	.
C[C@H]1CN([C@@H](C)CO)C(=O)c2cccc(NC(=O)c3ccncc3)c2O[C@@H]1CN(C)C(=O)Nc1ccc(F)cc1	i	.	.	-13	4	-3	-3.5	.	.
COCCN(C(=O)CN1CCN(S(=O)(=O)c2ccc(F)cc2)CC1)c1c(N)n(Cc2ccccc2)c(=O)[nH]c1=O	.	0.68	4%	.	.	.	.	0.0	.
COc1ccccc1Nc1ccc2c(O)cc(S(=O)(=O)O)cc2c1	i	0.61	15%	-24	6	20	24	-55	.
COc1ccccc1S(=O)(=O)N(C)C[C@H]1Oc2ncc(Br)cc2C(=O)N([C@@H](C)CO)C[C@H]1C	i	.	.	-3.6	1	2	-3.3	.	.
COC(=O)[C@@H]1[C@@H](CO)[C@@H]2Cn3c(ccc(C4=CCCCC4)c3=O)[C@@H]2N1C(=O)C1CCC1	i	.	.	-1.8	-2	1	0.0	.	.
CNC(=S)NNC(=O)Cn1ccc(C)n1	.	0.69	?	.	.	.	.	2.9	18
CCCC(=O)NC1=C(C#N)C2(CCCCC2)Cc2ccccc21	.	0.68	-5%	.	.	.	.	0.2	6
COc1ccc(-c2ccncc2)cc1OC	i	0.67	.	-4.9	-1	3	-5.2	-2.2	6
N/C(=N\OC(=O)c1ccccc1Br)c1ccc([N+](=O)[O-])cc1	i	.	.	0.8	3	12	-3.6	0.2	-6
FC(F)(F)c1cnc(NNC(=S)Nc2ccc(Cl)cc2)c(Cl)c1	.	0.6	-7%	.	.	.	.	-0.6	98*
CCOc1ccc(C(=O)COC(=O)c2cc([N+](=O)[O-])ccc2N2CCOCC2)cc1	i	0.69	0%	3.7	-6	-2	3.7	1.0	-1
COc1ccc(OC)c(NC(=O)c2cc(OC(C)=O)cc(C(=O)Nc3cc(OC)ccc3OC)c2)c1	i	0.7	.	-2.3	11	7	1.6	0.9	0
Cc1cc(Sc2ncnc(N)c2[N+](=O)[O-])ncn1	.	0.65	14%	.	.	.	.	-0.2	46
N#Cc1ccccc1Cn1c(=O)n(Cc2ccc(C(=O)NCc3ccco3)cc2)c(=O)c2ccccc21	.	0.74	20%&-1%	.	.	.	.	0.1	.
CC(C)=NN/C(N)=N/C(=S)Nc1ccc(C)cc1	.	0.69	-6%	.	.	.	.	-1.8	72
COc1ccc(/C=N/NC(=O)c2cc3cc(OC)c(OC)cc3[nH]2)cc1	i	.	-2%	5.2	-45	-69	5.5	-0.3	3
CC1=CC(C)C(C[N+]2(C)CCCCC2)C(C)C1 (stereo not drawn)	i	0.68	10%	-7.1	2	2	-0.1	-0.3	-6
CN(C)S(=O)(=O)c1cccc(C(=O)Nc2n[nH]c(C(F)(F)F)n2)c1	i	.	.	-5.0	1	0	-2.4	-1.9	-18

Not all compounds are listed; rates above refer to the full screens.
